Ecoli rRNA inh – reduced GFP signal of wild-type E. coli, primary screen, bacterial rRNA inhibitor project, GFP/RFP fluorescence, OD600, single point; E. coli WT GFP vs humanized-ribosome RFP mutants, 24 h; stronger effect = lower value; DMSO median 0, no signal -100; GFP signal change (wild-type ribosome), % (test concentration not listed); hit rate 1.6% among 350,000; AID 720706, 2013;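 active means significant combined selectivity score with lowered wild-type GFP, culture density cut under 30%, mutant RFP and density less affected; inactive means any of these conditions unmet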; further: one replicate is shown; some compounds called inactive have numbers as strong as hits
Bfl-1 A1 inh – caspase 3/7 activation in MEF A1-2A-BIM cells, primary screen, A1 inhibitor project, cell-based, luminescence, HTS; caspase activation, % (test concentration not listed); AID 2462, 2010; hit rate 0.066% among 330,000; Caspase-Glo 3/7 luminescence, 3 h; percent of clofoctol response, vehicle zero;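 active means over half of replicate activation scores above 10%, or exactly half above 10 with the replicate mean above 10; inconclusive means replicate mean below 10 yet half the replicates above 10; inactive means over half of replicates below 10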;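 further: wells of about 30 µL received 50 nL stock; many hits fall short of the cut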
Calb FLC – C. albicans growth inhibition with fluconazole, primary screen, CaCi-2 strain, Alamar Blue fluorescence; hit rate 0.57% among 300,000; AID 1979, 2009; C. albicans CaCi-2 (fluconazole-resistant clinical isolate) + fluconazole, 48 h; growth inhibition, % (test concentration not listed);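 active means most replicates above 75%; inconclusive means exactly half above 75%; inactive means most below 75%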;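 further: all wells also contain fluconazole at 8 µg/ml as a sub-toxic cotreatment; 0% = median of DMSO wells and 100% = median of geldanamycin control wells; wells of about 8 µL received 7.5 nL stock; the first replicate is given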
Vif A3G – inhibitors of Vif binding to APOBEC3G peptide, primary screen, biochemical, TR-FRET, GST-Vif 1-94, biotin-A3G peptide, dose response retest (AID 1117319). TR-FRET GST-Vif / biotin-A3G peptide binding; higher % means a stronger effect; test concentration not given here; strong numbers were not always called active. inhibition, %; hits with a dose series show IC50 in µM. hit rate 0.57% among 260,000;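 active means above the screen mean plus three standard deviations and confirmed in dose response; inconclusive means results disagree or hit not tested in dose response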;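 further: Vif residues 1-94 fused to GST binding biotinylated APOBEC3G peptide 110-148; 0% = full assay without inhibitor and 100% = GST in place of GST-Vif; retest series ran down from 100 µM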
T cruzi repl – inhibitors of intracellular T. cruzi growth, primary screen, luminescence, NIH3T3 host cells | hit rate 1.4% among 300,000 | inhibition, % (concentration not given with the values) | T. cruzi beta-gal in NIH3T3, 90 h;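 active means mean inhibition across valid replicates above about 55%, limit read from the data; inconclusive means mean below that limit but half or more replicates reach it; inactive means mean below it, under half of replicates reach it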;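 further: signal also drops with host cell toxicity which is not excluded here; 0% = plate median of DMSO wells and 100% = zero luminescence signal; higher percent means less beta-gal luminescence so fewer parasites; stock transfer was 50 nL into about 50 µL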
MLL AF4-AF9 inh – inhibitors of AF4 peptide binding to AF9, primary screen, biochemical, AlphaScreen, biotin-AF4 peptide, FLAG-AF9, single point. hit rate 0.47% among 350,000. inhibition, % at 10 µM. Protein AF-9 (Homo sapiens), P42568;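 active means every replicate reaching a set inhibition limit, whatever the replicate mean, cut at about 25% in these data; inconclusive means mean inhibition reaches that limit but some replicates miss it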;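 further: 0% = plate neutral control median and 100% = total signal loss; the record names both 10 and 1 µM as test concentration; the first replicate is given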
Target sequence (P42568 whole entry, looked up): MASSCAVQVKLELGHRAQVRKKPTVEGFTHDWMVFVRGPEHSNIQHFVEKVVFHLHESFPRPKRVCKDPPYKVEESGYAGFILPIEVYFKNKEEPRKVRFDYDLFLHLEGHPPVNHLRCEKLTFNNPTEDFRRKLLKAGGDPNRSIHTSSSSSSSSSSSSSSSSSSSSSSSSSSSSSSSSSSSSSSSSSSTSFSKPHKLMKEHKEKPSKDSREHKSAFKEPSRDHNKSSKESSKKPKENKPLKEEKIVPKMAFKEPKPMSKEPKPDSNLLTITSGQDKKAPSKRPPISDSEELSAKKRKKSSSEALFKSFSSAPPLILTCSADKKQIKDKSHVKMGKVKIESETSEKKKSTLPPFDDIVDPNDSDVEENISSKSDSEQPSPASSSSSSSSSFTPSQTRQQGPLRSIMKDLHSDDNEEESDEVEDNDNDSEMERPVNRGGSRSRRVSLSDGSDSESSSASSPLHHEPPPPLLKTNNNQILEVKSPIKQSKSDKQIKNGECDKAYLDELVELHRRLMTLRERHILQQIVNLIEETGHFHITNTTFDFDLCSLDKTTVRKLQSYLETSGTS
Beta apoptosis – inhibitors of cytokine-induced beta cell apoptosis, primary screen, luminescence | INS-1E cytokine-induced death, ATP luminescence, 48 h; percent of positive-control rescue, neutral wells zero | protection from apoptosis, % (concentration not given with the values) | hit rate 0.8% among 300,000 | AID 435005, 2010;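 active means all replicates at 75% or more, or half of them and the mean; inconclusive means half reach 75% but not the mean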;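 further: 0% = cytokine-treated negative control wells and 100% = positive control rescue; higher means more ATP so stronger rescue from cytokine killing; wells of about 40 µL received 100 nL stock; the first replicate is given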
RanGTP-Impb inh – inhibitors of RanGTP-importin-beta interaction, primary screen, biochemical, FRET, CFP-Ran, YFP-importin-beta, homogeneous; Ran GTPase (GTP-bound) - importin-beta complex; cell-free CFP-Ran/YFP-importin-beta FRET ratio; inhibition, % (test concentration not listed); hit rate 1.1% among 300,000; AID 2216, 2009;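 active means most replicates above 15%; inconclusive means exactly half above 15%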;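 further: 0% = DMSO wells and 100% = Ran loaded with GDP instead of GTP; wells of about 40 µL received 100 nL stock; the first replicate is given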
Ecoli rRNA inh OD600 – recorded beside Ecoli rRNA inh, whose call it bears; OD600 change, %; measured here: OD600 growth;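 optical density of the mix in the first replicate; 0 = DMSO median and -100 = no signal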
Ecoli rRNA inh RFP – second read-out of Ecoli rRNA inh, no call of its own (marks repeat the call); RFP signal change, %; measured here: RFP humanized mutant strains;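 first replicate; 0 = DMSO median and -100 = no signal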
Numbers without * were called inactive; ? = inconclusive; . = not tested or not shown. This is a subset (hit frequency here may not be typical).

SMILES	Ecoli rRNA inh	Ecoli rRNA inh OD600	Ecoli rRNA inh RFP	Bfl-1 A1 inh	Calb FLC	Vif A3G	T cruzi repl	MLL AF4-AF9 inh	Beta apoptosis	RanGTP-Impb inh
NC(=O)c1sc2nc3c(c(-c4cccnc4)c2c1N)CCC3	.	.	.	-0.1	-4	4%	-8	.	-9	-2.5
COc1ccc(-n2nnnc2SCC(=O)NCCc2ccc(OC)c(OC)c2)cc1	.	.	.	-0.2	6	8%	-5	.	1	4.4
CCC(c1nnnn1Cc1ccc(OC)cc1)N1CCN(c2ccc(OC)cc2)CC1 (stereo unspecified)	-25	-23	-0.5	0.1	-5	9%	2	19	-3	-1.9
CCOC(=O)c1c(NC(=O)Cc2ccccc2)sc2c1CCN(C)C2	-3	-1	-0.3	1.0	-2	.	55*	-2.1	-8	76*
COC(=O)c1cccc(NC(=O)CN(c2ccc3c(c2)OCO3)S(C)(=O)=O)c1C	.	.	.	-0.2	-1	4%	3	.	-3	1.3
CCOC(=O)C1(CCc2ccccc2)CCN(Cc2cccc3nccnc23)CC1	-29	-60	22	0.5	4	-1%	8	13	12	-2.4
Cc1[nH]c2ccccc2c1C(c1ccccn1)N1CCC(C)CC1 (stereo unspecified)	.	.	.	0.8	-2	0%	-2	.	-8	-3.5
CN(c1ccc(OCC(=O)Nc2ccc3[nH]c(=O)[nH]c3c2)cc1)S(=O)(=O)c1ccc(Cl)cc1	.	.	.	2.0	21	9%	-20	.	-2	6.2
CCc1ccc(N2CC(C(=O)Nc3ccc4c(c3)OCO4)CC2=O)cc1 (stereo unspecified)	.	.	.	-0.3	.	-6%	.	0.1	-1	.
Cc1cc(C)cc(NC(=O)c2ccc(Cn3nc(C)c(Cl)c3C)o2)c1	.	.	.	0.0	23	3%	0	.	-1	-0.3
O=C(NCCNC(=O)c1ccc(Cl)cc1Cl)c1ccccn1	1	5	-2.0	0.3	-3	.	-24	-0.8	3	7.8
CSc1nsc(/C=C/Nc2ccc(F)cc2)c1C#N	-6	-5	0.4	0.7	.	6%	-21	2.9	2	.

With a hit mark in RanGTP-Impb inh, among the entries above:
smiles	Ecoli rRNA inh	Ecoli rRNA inh OD600	Ecoli rRNA inh RFP	Bfl-1 A1 inh	Vif A3G	MLL AF4-AF9 inh	RanGTP-Impb inh
CCOC(=O)c1c(NC(=O)Cc2ccccc2)sc2c1CCN(C)C2	-3	-1	-0.3	1.0	.	-2.1	76*

Further structures.
SMILES	Ecoli rRNA inh	Ecoli rRNA inh OD600	Ecoli rRNA inh RFP	Bfl-1 A1 inh	Calb FLC	Vif A3G	T cruzi repl	MLL AF4-AF9 inh	Beta apoptosis	RanGTP-Impb inh
CC(=O)NS(=O)(=O)c1ccc(NC(=O)c2ccc(Cl)cc2[N+](=O)[O-])cc1	18	11	-0.4	-0.5	-3	-9%	-15	0.6	.	1.8
Cc1ccc(OCCC(=O)Nc2ccc(C)c(F)c2)cc1	-2	1	1.2	?	-5	10%	13	-0.7	-6	0.0
CCCN(Cc1cc(=O)[nH]c2ccccc12)C(=O)CC	9	-2	-3.7	0.2	5	16%	2	-6.2	0	3.5
Cc1cc(OCc2nn[nH]n2)c2c(C)c(Cc3ccccc3)c(=O)oc2c1	.	.	.	0.3	1	2%	7	.	0	-2.5
O=c1[nH]nc(SCc2ccccc2)n1C1CC2C=CC1C2 (stereo unspecified)	-35*	6.1*	3.0*	?	3	-4%	9	.	-1	-2.1
CCOC(=O)c1ccc(NC(=O)CCS(=O)(=O)Cc2ccccc2)cc1	8	9	0.3	-0.4	-2	.	-15	-10	1	0.6
COc1ccc(CNC(=O)CSc2nc(C)cs2)cc1	4	-4	-2.0	-1.6	-2	5%	-14	-5.5	2	0.5
CCN(CC)Cc1cc(CC(C(N)=O)C(N)=O)ccc1OC	.	.	.	-0.7	2	27%	-4	.	0	0.1
COc1ccc(C(=O)COC(=O)CN2C(=O)c3ccccc3C2=O)c(OC)c1	7	6	1.7	-0.1	-3	-21%	1	0.3	3	0.8
Cc1nc2ccccc2cc1C(=O)NCc1ccco1	.	.	.	-4.4	-5	6%	-22	.	2	0.2
CCCOc1ccc(C(F)(F)F)cc1NC(=O)CN1C(=O)C(=O)N(CC)C1=O	5	12	-4.4	0.6	.	9%	.	-4.6	-4	.
CS(=O)(=O)N1CCN(Cc2cc(=O)n3ccsc3n2)CC1	20	13	3.2	0.7	0	.	-5	1.2	0	?
Cc1nc2cc(NC(=O)c3ccc(Br)s3)ccc2s1	-1	8	1.7	1.6	1	.	13	-0.6	-3	6.7
O=C(Cc1coc2ccc3ccccc3c12)N1CCCC1	.	.	.	0.3	-7	11%	-5	.	-5	1.6
CC(C)OCCCNC(=O)c1cc(-c2cccs2)nc2ccccc12	6	0	0.1	-0.5	.	-2%	-13	-0.7	2	2.1
O=C(Nc1ccc2oc(=O)ccc2c1)c1ccccc1[N+](=O)[O-]	-2	7	5.2	0.8	-6	4%	-10	-1.4	-3	-0.2
O=C(O)c1cccc2c1-c1ccccc1/C2=N\Nc1ccccc1	-39*	-29*	-14*	-1.0	21	-1%	3	2.5	.	2.3
CCOc1ccc(NC(=O)c2cccnc2SC)cc1	15	16	0.7	-1.8	-16	-9%	3	0.9	-3	-1.9
O=C(COC(=O)CNC(=O)c1sc2ccccc2c1Cl)Nc1c(Cl)cc(Cl)cc1Cl	4	5	-0.3	0.0	?	-18%	-11	1.1	-11	3.3
CN(CCOc1cccc(C(F)(F)F)c1)Cc1ccccc1	-2	-6	1.6	0.1	3	10%	7	4.4	-4	-0.6
Cc1ccc(SCCNC(=O)c2ccccc2F)cc1	-4	-3	-0.5	-0.6	2	.	-4	0.1	1	2.5
COC(=O)c1cc(S(=O)(=O)N2CCN(c3cc(C)ccc3C)CC2)c[nH]1	-25	-33	-3.8	-0.4	10	.	1	-0.1	-6	0.5
CC(C)OCCCn1c(=S)[nH]c2ncccc2c1=O	.	.	.	-0.1	-6	27%	-6	.	3	-1.8
CC(=O)c1ccc(NC(=O)CSc2nnc(-c3ccoc3C)n2Cc2ccccc2)cc1	.	.	.	-0.2	18	-5%	-13	.	-1	0.6

2 records picked at random from those above, as already listed:
SMILES	Ecoli rRNA inh	Ecoli rRNA inh OD600	Ecoli rRNA inh RFP	Bfl-1 A1 inh	Calb FLC	Vif A3G	T cruzi repl	MLL AF4-AF9 inh	Beta apoptosis	RanGTP-Impb inh
COC(=O)c1cc(S(=O)(=O)N2CCN(c3cc(C)ccc3C)CC2)c[nH]1	-25	-33	-3.8	-0.4	10	.	1	-0.1	-6	0.5
CC(=O)c1ccc(NC(=O)CSc2nnc(-c3ccoc3C)n2Cc2ccccc2)cc1	.	.	.	-0.2	18	-5%	-13	.	-1	0.6

One compound at a time, as listed above. Order of screens: Ecoli rRNA inh | Ecoli rRNA inh OD600 | Ecoli rRNA inh RFP | Bfl-1 A1 inh | Calb FLC | Vif A3G | T cruzi repl | MLL AF4-AF9 inh | Beta apoptosis | RanGTP-Impb inh
Cc1ccc(SCCNC(=O)c2ccccc2F)cc1 across the screens: -4 | -3 | -0.5 | -0.6 | 2 | . | -4 | 0.1 | 1 | 2.5
O=C(COC(=O)CNC(=O)c1sc2ccccc2c1Cl)Nc1c(Cl)cc(Cl)cc1Cl across the screens: 4 | 5 | -0.3 | 0.0 | ? | -18% | -11 | 1.1 | -11 | 3.3
CCOc1ccc(NC(=O)c2cccnc2SC)cc1 across the screens: 15 | 16 | 0.7 | -1.8 | -16 | -9% | 3 | 0.9 | -3 | -1.9
O=C(O)c1cccc2c1-c1ccccc1/C2=N\Nc1ccccc1 across the screens: -39* | -29* | -14* | -1.0 | 21 | -1% | 3 | 2.5 | . | 2.3
COC(=O)c1cc(S(=O)(=O)N2CCN(c3cc(C)ccc3C)CC2)c[nH]1 across the screens: -25 | -33 | -3.8 | -0.4 | 10 | . | 1 | -0.1 | -6 | 0.5

Further compounds follow:
SMILES	Ecoli rRNA inh	Ecoli rRNA inh OD600	Ecoli rRNA inh RFP	Bfl-1 A1 inh	Calb FLC	Vif A3G	T cruzi repl	MLL AF4-AF9 inh	Beta apoptosis	RanGTP-Impb inh
N#C/C(=C\c1ccc(Oc2ccc(C(F)(F)F)cc2[N+](=O)[O-])cc1)c1nc2ccccc2[nH]1	.	.	.	0.1	2	5%	52	.	15	5.0
CC(=O)Nc1ccc(S(=O)(=O)N2CCCC2C(=O)Nc2ccc3c(c2)OCCO3)cc1 (stereo unspecified)	2	5	-0.9	0.1	1	1%	-11	-2.0	-2	0.3
CCOC(=O)N1CCN(C(=O)/C(=C/c2ccc(OC)cc2)NC(=O)c2ccccc2)CC1	.	.	.	-0.1	7	3%	-17	.	2	1.2
C/C=C(\C)CN1CCN(c2cc(C)ccc2C)CC1	.	.	.	1.3	-24	22%	9	.	-7	4.4
NC(=O)C1CCN(C(=O)c2cnn(-c3ccccc3)c2NC(=O)c2cccc(F)c2)CC1	4	12	-1.2	-2.8	-7	.	1	0.0	-3	-3.2
O=C(Cc1ccccc1Cl)NC1(O)C(=O)c2ccccc2C1=O	.	.	.	-0.2	-28	-2%	-1	-3.2	-6	4.9
COc1cccc(C=O)c1OC(=O)N1CCOCC1	3	9	-6.6	0.2	14	-4%	1	-0.7	.	-0.1
Nn1c(SC/C=C/c2ccccc2)nnc1-c1ccccn1	.	.	.	-1.0	-8	6%	-3	.	1	?
C/C(=N\NC(=O)c1ccccc1[N+](=O)[O-])c1ccc(Br)s1	.	.	.	0.2	-8	-2%	6	-3.7	-2	?
CCOC(=O)CNC(=O)c1sc(NC(=O)c2cccc(F)c2)nc1C	.	.	.	-2.1	?	-10%	-13	.	-2	6.4
CCOc1ccc(C(=O)NCC(=O)NCC(c2cccs2)N2CCOCC2)cc1 (stereo unspecified)	2	1	-2.0	-0.9	-4	5%	-5	-2.7	-4	.
O=C1OC(Nc2ccc(Br)cc2F)c2ccccc21 (stereo unspecified)	.	.	.	-0.8	-11	-1%	8	.	-3	?

High-throughput results (PubChem BioAssay)
